miR-21 FLuc = miR-21 reporter, rising signal. HeLa miR-21 FLuc reporter, luciferase, 48 h. Potency, µM (titrated, usually from 38.3 µM), without a hit: at the top dose reporter change, positive = more light. 340,000 tested, under 10 active; active = well fitted rising curve with a large enough effect; inconclusive = small, poorly fitted or top-dose-only effect; inactive = no such curve, though single readings can be large or run the other way;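 further: % of control where 0% means no effect; miR-21 action dims this reporter so a rising signal means less miR-21 action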
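Compounds were titrated across several concentrations (up to approximately 40 uM) and incubated 48 hours with HeLa miR-21-FLuc reporter cells (miR-21 target sequence downstream of FLuc, endogenous miR-21). Readout was firefly luciferase luminescence after lytic detection reagent.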
Rango release inh = prevents RanGTP from dissociating the Rango-importin beta complex; Potency, µM (highest dose often 46.1 µM), for inactives: top-dose activity change, negative = inhibition; Biochemical FRET Rango-importin beta, RanGTP-induced dissociation; AID 540253; actives 0.071% (n = 340,000); O95149+P62826; active means falling FRET ratio curve, often poorly fitted, with flat reads before Ran was added; inconclusive means other falling curves, or compound fluorescence or quenching; inactive means flat or rising ratio curve;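 further: potency means the concentration at half of the fitted maximal effect; % of control where 0% means no effect; nearly all actives have a fitted effect of over 45% in size; -100% = wells without RanGTP and RCC1; the record marks most hits as doubtful in a second field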
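Compounds preincubate 5 min with complex of recombinant Rango and importin beta in PBS with 1 mM DTT. Ran (0.6 uM) loaded with 2 mM GTP plus 0.2 uM RCC1 starts dissociation; FRET is recorded 45 min later.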
GLA inh pH 4.5 = alpha-galactosidase A (human) inhibition, pH 4.5. P06280. purified enzyme, 4-MU-alpha-Gal fluorescence, pH 4.5. activity change, negative = inhibition, % at 105 µM. 230,000 tested, under 10 active. AID 1467; inconclusive = small, poorly fitted or top-dose-only inhibition, or a rising curve; inactive = flat fitted curve, though single readings scatter; no compound was filed as active;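 further: 0% = full activity with enzyme and -100% = basal without enzyme; dose as in the result columns while the protocol names 77 µM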
Target sequence (P06280 whole entry, looked up): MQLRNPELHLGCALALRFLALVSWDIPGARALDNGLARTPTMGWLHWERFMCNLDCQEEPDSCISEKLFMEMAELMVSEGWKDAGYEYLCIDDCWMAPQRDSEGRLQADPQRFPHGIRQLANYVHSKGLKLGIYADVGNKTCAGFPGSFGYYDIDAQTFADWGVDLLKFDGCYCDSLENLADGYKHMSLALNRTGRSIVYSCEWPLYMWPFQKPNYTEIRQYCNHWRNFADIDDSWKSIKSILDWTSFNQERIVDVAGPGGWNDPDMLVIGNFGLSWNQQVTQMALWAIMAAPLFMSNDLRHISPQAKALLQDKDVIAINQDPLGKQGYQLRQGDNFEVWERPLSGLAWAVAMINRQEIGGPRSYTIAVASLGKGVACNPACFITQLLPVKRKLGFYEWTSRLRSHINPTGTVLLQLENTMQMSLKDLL
Rango-impB inh = prevents formation of the Rango-importin beta complex. Rango CFP/YFP FRET sensor + importin beta, 45 min. actives 0.031% (n = 340,000). Potency, µM (top dose mostly 92.2 µM), inactives show at the highest dose inhibition of complex formation. Q14974; active = rising FRET ratio curve, often small or poorly fitted; inconclusive = mostly compound fluorescence or quenching in the first reads; inactive = flat curves in all reads;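 further: potency means the concentration at half of the fitted maximal effect; 0% = DMSO wells and 100% = buffer wells lacking importin beta; nearly all actives have a fitted effect of over 15% in size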
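Inhibition scored from the CFP 486 nm/YFP 530 nm FRET ratio 45 min after adding 0.125 microM importin beta to 50 nM Rango biosensor preincubated 5 min with compound (room temperature, PBS with DTT, Tween-20, BSA). No-importin wells as positive control.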
Active calls of the source: *; ? = inconclusive; . = no result given.

Rango-impB inh | Rango release inh | GLA inh pH 4.5 | miR-21 FLuc | molecule
2.9% | 0% | . | -43% | O=C(NCC(=O)N1CCc2ccccc2C1)c1ccccc1Cl
0.9% | -8% | . | -1% | CNC(=S)N1CCN(S(=O)(=O)c2ccc3ccccc3c2)CC1
-4.6% | -10% | . | . | COc1ccc(N2CC(C(=O)Nc3nnc(SCC(=O)NCC4CCCO4)s3)CC2=O)cc1 (stereo not given)
5.4% | 10% | -2 | 24% | Cc1ccc(NC(=O)c2c(C)noc2-c2snnc2C)cc1
-0.3% | 16% | -1 | -4% | CCN1C(=O)CSc2ccc(C(=O)OC)cc21
-0.1% | -4% | 3 | -1% | Cc1c(N2C(=O)CSC2c2ccc([N+](=O)[O-])cc2)c(=O)n(-c2ccccc2)n1C (stereo not given)
-1.1% | 0% | -2 | -5% | CC(C)CC(NC(N)=O)C(=O)OCC(=O)N(Cc1ccccc1)Cc1ccccc1 (stereo not given)
3.9% | 15% | 0 | -26% | CCOc1cccc(-c2nnc(SCC(=O)Nc3cc(OC)cc(OC)c3)n2N)c1
-1.5% | 16% | . | . | O=C(O)C1=C[C@H](c2ccc(C(F)(F)F)cc2)C[C@H](OCCCCO)O1
-0.2% | -6% | -21 | -2% | Cc1nn(Cc2ccc(F)cc2)c(C)c1NC(=O)c1cc2ncc(Br)cn2n1
1.4% | -17% | 7 | -3% | NC(=O)CC[C@@H]1NC(=O)[C@@H]2CCCN2C(=O)c2cc([N+](=O)[O-])cc(F)c2NCCC[C@@H](C(N)=O)NC1=O
? | -13% | -13 | -8% | O=C(O)c1cc(/C=C/C(=O)c2cc(F)ccc2O)c2c(c1)COCO2
4.1% | 23% | -1 | -28% | Cc1cccc(OCC(=O)Nc2cc(C)on2)c1
1.2% | 18% | 1 | -2% | O=C(NC(=S)NC1CC1)c1cccnc1
-2.9% | 21% | -7 | 2% | COc1cc(/C=N/NC(=O)C(C)n2nnc3ccccc32)ccc1O (stereo not given)
0.5% | -9% | -3 | -9% | COc1ccccc1NC(=O)Nc1cccnc1
-1.6% | -8% | . | . | Cc1noc(C)c1CSCC(=O)Nc1cc(S(=O)(=O)N2CCOCC2)ccc1OC(C)C
0.6% | 1% | 7 | 0% | C=CCn1c(CCNC(=O)c2cccs2)nnc1SCC(=O)c1cccc([N+](=O)[O-])c1
? | -4% | . | . | CC(C)C(NC(=O)CCNC(=O)c1ccc(C(C)(C)C)cc1)c1nc2ccccc2[nH]1 (stereo not given)
3.6% | 7% | 0 | 17% | CCC1=Nc2cc(C(=O)NCCCOC)ccc2Sc2ccccc21
1.0% | -13% | . | -1% | O=C(NC1CCCCC1)C1CCCN(S(=O)(=O)c2ccc(F)cc2)C1 (stereo not given)
4.5% | 9% | . | -36% | Clc1nccnc1N/N=C/c1ccc(Br)cc1
3.0% | 4% | 8 | -1% | NC(=O)COC(=O)C12CC3CC(CC(O)(C3)C1)C2
-1.1% | -8% | . | . | C#Cc1ccc([C@@H]2C=C(C(=O)N3CCOCC3)O[C@H](OCc3ccc(CO)cc3)C2)cc1
-2.8% | -2% | . | . | CN(CC(=O)Nc1ccccc1Cl)CC(=O)N1CCc2ccccc21
1.3% | -7% | 8 | -1% | O=C(CCNS(=O)(=O)c1cccc2nsnc12)NCc1ccc(F)cc1
14% | -16% | -9 | -13% | CCn1nc(C(=O)OCC(=O)N2c3ccccc3CC2C)c2ccccc2c1=O (stereo not given)
0.0% | 1% | -19 | -7% | Cc1onc(-c2c(F)cccc2Cl)c1C(=O)NCc1ccccn1
? | -24% | . | -3% | CCCC(=O)Nc1nnc(S(=O)(=O)N(C)Cc2ccco2)s1
6.8% | -12% | . | . | O=C(CC(=O)Nc1ccccc1)Nc1ccccc1
-0.8% | -11% | 5 | -2% | Cc1cc(CN2C(=O)c3ccccc3C2=O)on1
6.5% | -10% | 2 | 0% | COc1cc(NC(=O)C2CC(=O)NC3=C2C(=O)CCC3)cc(OC)c1 (stereo not given)
4.3% | 2% | 7 | -6% | CC(=O)Nc1ccc(Cc2nc3ccccc3[nH]2)cc1
? | ? | -2 | -8% | Cc1ccc(/C=C2/NC(=O)N(Cc3ccccc3F)C2=O)s1
-0.5% | 7% | . | 0% | Cc1ccc(/C=C(\NC(=O)c2ccccc2)C(=O)NCCN2CCOCC2)o1
7.0% | -2% | -16 | -3% | CCCCNC(=O)OCC(CC)NC(=O)OCC(C)C (stereo not given)
-0.3% | 13% | . | -8% | COc1cc2c(cc1OC)C(COc1ccccc1OC)N(C(C)=O)CC2 (stereo not given)
-0.3% | 1% | 3 | 24% | CCC/C(O)=C1\C(=O)CC(C)(C)CC1=Nc1ccc(OC)cc1OC
0.5% | -10% | -8 | 14% | CC1=NN(C(=O)COc2cc(C)ccc2C(C)C)C(O)(c2ccccc2)C1 (stereo not given)
-4.4% | 10% | -10 | 1% | COc1cccc(C2CC(=O)NC3=C2C(=O)CCC3)c1 (stereo not given)
3.0% | 0% | -3 | ? | Cc1ccc2nc3c(c(Nc4ccc5c(c4)OCCO5)c2c1)CCC3
? | ? | . | ? | Cc1ncc(CO)c(/C=N/Nc2ccc(C(F)(F)F)cn2)c1O
2.6% | 1% | -5 | -3% | O=C(NNC(=O)C1CC(c2cccs2)=NO1)NC1CCCCC1 (stereo not given)
4.1% | 1% | -1 | 15% | COc1cccc(/C=N/NC(=O)c2ccc([N+](=O)[O-])cc2Cl)c1O
-2.2% | -21% | 4 | -4% | Cn1cccc1C(=O)OCC(=O)N1CC(=O)Nc2ccccc21
? | ? | -1 | -13% | COc1ccc(Nc2c3c(c(C#N)c4nc5ccccc5n24)CCC3)cc1
? | ? | -8 | -9% | N#CC1=C(N)C2=CCCC[C@H]2[C@H](c2ccc(Br)cc2)C1(C#N)C#N
? | -9% | -5 | 4% | COc1ccc(S(=O)(=O)NCC(c2cccnc2)N2CCN(c3ccccc3OC)CC2)cc1C (stereo not given)
0.4% | -8% | 1 | -19% | COc1ccccc1Oc1cc(-n2nc(C)cc2C)ncn1
3.9% | 1% | -5 | -5% | Nc1cc(OC(=O)c2ccco2)nn1S(=O)(=O)c1ccc(F)cc1
-1.1% | -6% | -8 | 2% | COc1ccc(CCN2C(=O)CC(NC34CC5CC(CC(C5)C3)C4)C2=O)cc1OC (stereo not given)
2.0% | 7% | . | -5% | CC(C)(C)c1nnc(NS(=O)(=O)c2cc(Cl)ccc2Cl)s1
1.3% | 1% | 9 | -1% | CSc1ccccc1NC(=O)N1CCCC(C(=O)c2ccc3c(c2)OCO3)C1 (stereo not given)
? | 0% | 14 | -7% | O=C1C2=C(SCCS2)C(=O)N1c1ccccc1
1.3% | 5% | 1 | -2% | CCS(=O)(=O)Nc1ccc(-c2nnc(SCC(=O)OC)o2)cc1
-0.2% | 4% | . | 1% | NS(=O)(=O)c1ccc(CCNC(=O)COc2ccc3c4c(c(=O)oc3c2)CCC4)cc1
0.6% | 13% | . | 7% | COc1ccc(C(C)NC(=O)C2CCCC2)cc1 (stereo not given)
? | ? | -3 | -12% | CC1(C)Cc2c(C#N)c(N3CCN(C(=O)c4ccccc4Cl)CC3)nc(-c3ccco3)c2CS1
? | -27% | 6 | -10% | C#CCOCCOCCOCCNc1nc(N2CCN(C(=O)[C@H](C)n3cc(CCCN=C(N)N)nn3)CC2)nc(N2CCN(C(=O)[C@H](C)n3cc(CCCN=C(N)N)nn3)CC2)n1
0.9% | 2% | -8 | -5% | COC(=O)c1cn(NC(=O)/C=C/c2ccc(OC)c(OC)c2)c(=O)c2ccccc12

The final three records of the part above come first, to join the parts:
Rango-impB inh | Rango release inh | GLA inh pH 4.5 | miR-21 FLuc | molecule
? | ? | -3 | -12% | CC1(C)Cc2c(C#N)c(N3CCN(C(=O)c4ccccc4Cl)CC3)nc(-c3ccco3)c2CS1
? | -27% | 6 | -10% | C#CCOCCOCCOCCNc1nc(N2CCN(C(=O)[C@H](C)n3cc(CCCN=C(N)N)nn3)CC2)nc(N2CCN(C(=O)[C@H](C)n3cc(CCCN=C(N)N)nn3)CC2)n1
0.9% | 2% | -8 | -5% | COC(=O)c1cn(NC(=O)/C=C/c2ccc(OC)c(OC)c2)c(=O)c2ccccc12
4.8% | 0% | -18 | -50% | CCNC(=O)c1sc2cc(C)ccc2c1Cl
-1.8% | 2% | -18 | -3% | Cc1onc(-c2ccccc2Cl)c1C(=O)NCCn1ccc2ccccc21
3.7% | -8% | -5 | -12% | C=CCOc1cccc(C2C(C(=O)c3ccco3)=C(O)C(=O)N2CCN2CCOCC2)c1 (stereo not given)
-5.0% | -16% | -21 | -3% | CCN(CC)c1ccc(/C=N/n2c(-c3ccccc3Br)n[nH]c2=S)cc1
-1.9% | 1% | . | -10% | O=C(NCC1CC1)Nc1ccccc1
-3.0% | 9% | -3 | -4% | O=C(c1cccc(S(=O)(=O)N2CCCCC2)c1)N1CCCCC1
0.3% | 12% | 7 | 4% | O=C(c1ccco1)N1CCN(c2cc(=O)n(C3CCCCC3)c(=O)[nH]2)CC1
-1.5% | 8% | . | . | CN1CCN(C(=O)c2ccc(-c3nn(C)c(=O)c4ccccc34)cc2)CC1
3.4% | 11% | 1 | 18% | N#Cc1ccccc1CSc1ccc(-c2nc3ccccc3[nH]2)cn1
3.3% | 2% | -5 | -9% | CSC(=S)N/N=C/c1c[nH]c2ccccc12
1.3% | 6% | . | ? | COc1cc(SC)ccc1C(=O)Nc1nc2ccccc2[nH]1
2.4% | 7% | . | 3% | O=S1(=O)CCO[C@H]2Cc3ccccc3[C@H]2N1Cc1ccccc1
-1.1% | 5% | . | . | CN=C1S/C(=C\c2cccn2-c2cccc(Br)c2)C(=O)N1C
3.7% | 1% | -7 | 8% | COc1cccc(NC(=O)C2CC(=O)N(C)C(=Nc3cccc(F)c3)S2)c1 (stereo not given)
-0.6% | -8% | . | 2% | CC1(C(=O)NNC(=S)NCC2CCCO2)CC1(Cl)Cl (stereo not given)
? | -29% | . | . | CCOC(=O)/C=c1/s/c(=C/c2ccccc2OC)c(=O)n1CC(=O)N1CCOCC1
3.0% | 1% | 0 | -3% | Cc1cccc(N=Nc2c(C)[nH]n(-c3ccccc3)c2=O)c1
-1.4% | 12% | 1 | 1% | O=C1ON=C(c2ccccc2)/C1=C/c1ccc(-c2ccccc2[N+](=O)[O-])o1
0.5% | -8% | . | -47% | O=C(NC(=S)Nc1ccc2nc[nH]c2c1)c1ccccc1
-2.5% | 5% | . | . | Cc1noc(C)c1CSCC(=O)Nc1ccc(S(=O)(=O)C(F)F)cc1
0.6% | 14% | . | . | COc1cccc(C(=O)NCC(c2ccc3c(c2)OCO3)N2CCN(c3ccc(F)cc3)CC2)c1 (stereo not given)
0.4% | -3% | 1 | -6% | CCN(CC)C(=O)c1sc2nc(N3CCOCC3)c3c(c2c1N)CCCC3
6.1% | -4% | 10 | -2% | CCOC(=O)c1sc(NN=C(C(=O)OC)C(=O)OC)c(C(=O)OCC)c1C
? | 15% | . | . | O=C(/C=C/c1ccc2c(c1)S(=O)(=O)N(Cc1ccccc1)[C@H]2CC(=O)N1CCOCC1)N1CCOCC1
-3.4% | 5% | . | . | C=CCn1c(SCC(=O)N2CCOCC2)nc2sc(CC)cc2c1=O
-0.8% | 4% | -4 | -18% | Cc1nn(-c2ccccc2)c(C)c1/C=N/NC(=O)CSc1nc2ccccc2c(=O)n1-c1ccccc1
-0.9% | 3% | . | -2% | Cc1cc(Cl)ccc1C(=O)C1CCCN(C(=O)c2cncs2)C1 (stereo not given)

Part of the list above, with each value named.
Cc1onc(-c2ccccc2Cl)c1C(=O)NCCn1ccc2ccccc21
  Rango-impB inh = -1.8%	Rango release inh = 2%	GLA inh pH 4.5 = -18	miR-21 FLuc = -3%
C=CCOc1cccc(C2C(C(=O)c3ccco3)=C(O)C(=O)N2CCN2CCOCC2)c1 (stereo not given)
  Rango-impB inh = 3.7%	Rango release inh = -8%	GLA inh pH 4.5 = -5	miR-21 FLuc = -12%

Only part of the results is shown (hit frequency here may not be typical).
